# Cruzain inh noDet: cruzain (T. cruzi) inhibition without detergent; P25779; purified cruzain, Z-FR-AMC fluorescence, no detergent; Potency, µM, for the others: max response, negative = inhibition, usual class: inhibitors; 2.3% of 200,000 active; AID 1476;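 note: plate controls were enzyme without inhibitor for no effect and buffer without enzyme for full effect; nearly all actives have a fitted effect of over 40% in size; top concentration of the series not given in the record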
# Target sequence (P25779 123-467 limits assumed): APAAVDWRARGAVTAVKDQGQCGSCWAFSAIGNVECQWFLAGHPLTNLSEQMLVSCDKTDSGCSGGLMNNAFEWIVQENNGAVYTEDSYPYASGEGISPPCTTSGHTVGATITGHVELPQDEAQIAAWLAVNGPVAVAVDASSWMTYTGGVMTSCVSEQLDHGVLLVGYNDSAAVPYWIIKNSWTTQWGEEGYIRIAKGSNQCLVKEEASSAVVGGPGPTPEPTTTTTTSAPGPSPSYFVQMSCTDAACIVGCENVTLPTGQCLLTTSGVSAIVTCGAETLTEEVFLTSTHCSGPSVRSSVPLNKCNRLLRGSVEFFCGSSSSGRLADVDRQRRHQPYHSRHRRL
#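 Detergent-free condition (0.00005% Triton X-100) in acetate buffer pH 5.5 with DTT. 1.5 nM enzyme and compound were pre-mixed 15 min, then 2 uM Z-FR-AMC substrate added; reaction progress from fluorescence change between first and third reads (60 s).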
# Cruzain inh Det: cruzain (T. cruzi) inhibition with detergent; purified cruzain, Z-FR-AMC fluorescence, 0.01% Triton; P25779; 0.43% of 200,000 active; Potency, µM, without a hit: max response, negative = inhibition, usual class: inhibitors;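 note: plate controls were neutral wells for no effect and buffer without enzyme for full effect; nearly all actives have a fitted effect of over 40% in size; top concentration of the series not given in the record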
#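 Compounds were screened in titration against cruzain (1.5 nM) with 0.01% Triton X-100 to counter colloidal aggregation. Activity was the AMC fluorescence increase over 60 s after adding 2 uM Z-FR-AMC at pH 5.5.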
# LASV entry inh: Lassa virus entry inhibition | Lassa virus pseudotype entry inhibition, cell reporter; control for the full effect not named in the record | Potency, µM (series often up to 37.9 µM), for the others: at the top dose activity change, negative = inhibition, most hits filed as inhibitors | 1.2% of 300,000 active; active means well fitted inhibition curve with a large enough effect; inconclusive means small, poorly fitted or top-dose-only effect, or effect the other way; inactive means flat fitted curve, though single readings scatter; tested in HEK293 cells; note: % is set by controls: 0 for no effect and ±100 for the full control effect; nearly all actives have a fitted effect of over 50% in size; luciferase read-out
# Marburg entry inh: inhibitors of Marburg virus binding or cell entry; Marburg virus pseudotyped entry inhibition, cell reporter; control for the full effect not named in the record; about a third of the inactives were read at about 46 µM; Potency, µM (top dose mostly 37.8 µM), for the others: top-dose activity change, negative = inhibition, usual class: inhibitors; 1.8% of 300,000 active; AID 540276; active = well fitted inhibition curve with a large enough effect; inconclusive = small, poorly fitted or top-dose-only effect, or effect the other way; inactive = flat fitted curve, though single readings scatter; tested in HEK293 cells; about a fifth of its hits are not listed in these tables; note: % is set by controls: 0 for no effect and ±100 for the full control effect; luciferase read-out
# RE007 growth inh: less growth of the S. pombe RE007 Vpr strain; S. pombe RE007 Vpr strain, BacTiter-Glo ATP luminescence, 24 h; control for the full effect not named in the record; Potency, µM (titrated, usually from 92.2 µM), without a hit: at the top dose activity change, negative = less growth; 0.21% of 360,000 active; active = well fitted falling curve with a large enough effect; inconclusive = small, poorly fitted or top-dose-only effect; inactive = no such curve, though single readings can be large or run the other way;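 note: % is set by controls: 0 for no effect and ±100 for the full control effect; nearly all actives have a fitted effect of over 50% in size; the assay follows cell death caused by Vpr and the record does not say whether a fall means rescue or toxicity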
#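 Fission yeast strain RE007, carrying one chromosomally integrated HIV-1 vpr copy, was seeded at OD 0.01 in PMG+AL medium with 23 nL pinned compound. After 24 h at 30 °C and 99% humidity, viability was read by BacTiter-Glo luminescence.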
# SARS PLpro yeast: inhibitors of SARS-CoV papain-like protease in yeast | AID 485353 | 0.19% of 330,000 active | S. cerevisiae expressing SARS-CoV PLpro, growth rescue; control for the full effect not named in the record | Potency, µM (top dose mostly 32.9 µM), inactives show top-dose activity, positive = growth rescue; active means well fitted rising curve with a large enough effect; inconclusive means small, poorly fitted or top-dose-only effect; inactive means no such curve, though single readings can be large or run the other way; note: 0% is about no effect; nearly all actives have a fitted effect of over 55% in size; growth read by luminescence after 48 h
# StopGo reporter: lowers the luciferase signal of an FMDV 2A StopGo reporter; human cells with a luciferase reporter of 2A StopGo recoding; control for the full effect not named in the record; 1.2% of 410,000 active; AID 1159524; Potency, µM (highest dose often 57.9 µM), without a hit: at the top dose signal change, negative = less light; active = well fitted falling curve with a large enough effect; inconclusive = small, poorly fitted or top-dose-only effect; inactive = no such curve, though single readings can be large or run the other way; tested in HEK293T cells; note: % is set by controls: 0 for no effect and ±100 for the full control effect; nearly all actives have a fitted effect of over 45% in size; luciferase light after 4 h
# NS1 function inh: influenza NS1 inhibition. 0.4% of 270,000 active. Potency, µM (titrated, usually from 46.1 µM), inactives show at the top dose activity, positive = more growth. S. cerevisiae slowed by influenza A NS1, growth recovery by OD600; active means well fitted rising curve with a large enough effect; inconclusive means small, poorly fitted or top-dose-only effect; inactive means no such curve, though single readings can be large or run the other way; note: nearly all actives have a fitted effect of over 50% in size
#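 Growth recovery, yeast-based: influenza A NS1 expressed in S. cerevisiae causes slow growth, and suppressors are detected by OD600. The parent strain without NS1 is used as positive control.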
# Active calls of the source: *; ? = inconclusive; . = not tested or not shown; [ ] = remark or other dose. Unless noted, calls come from the whole dose curve; as a rule, active = well fitted curve in the direction sought with a large enough effect; inconclusive = small, poorly fitted or top-dose-only effect, or another doubt; inactive = no such curve, though single readings can be large; an effect the other way counts as inactive or inconclusive. Potency is the fitted concentration of half-maximal effect. Hits appear at their usual frequency; about 4.8% have a hit in one of these screens.
SMILES,Cruzain inh noDet,Cruzain inh Det,LASV entry inh,Marburg entry inh,RE007 growth inh,SARS PLpro yeast,StopGo reporter,NS1 function inh
CCOc1ccc(-n2c(C)nc3c(cnn3-c3ccc(Cl)cc3)c2=O)cc1,-4%,6.5%,-1%,1%,4%,0%,-15%,-7%
COCCNC(=O)c1c[nH]c2ccc(S(=O)(=O)N3CCC4(CC3)OCCO4)cc2c1=O,7%,3.6%,-17%,-1%,-1%,-3%,-1%,6%
CC(=NN(Cc1ccccc1)c1ccccc1)c1ccccc1,.,.,26%,12%,90%,.,-25%,.
Cc1cc(C)c2c(NC(=O)C3CC3)nn(C)c2n1,.,.,9%[46.1 µM],?,-4%,1%,-23%,3%
Cc1ccc(S(=O)(=O)N(C)CCCC(=O)N2CCN(c3ccccn3)CC2)cc1,15%,1.1%,-23%,?,-6%,?,?,-12%
Cc1nc2ccccc2n1/C(=N/S(=O)(=O)c1ccc(Br)cc1)c1ccccc1,-1%,-0.3%,.,.,.,3%,.,7%
CCOC(=O)c1nc(N)c(=O)n(-c2ccccc2)n1,-2%,4.0%,-6%,1%[46.1 µM],15%,10%,-15%,2%
O=C(NNS(=O)(=O)c1ccccc1)c1cnn(-c2ccc(Cl)cc2)c1C(F)(F)F,.,.,.,.,-15%,0%,-18%,4%
Cn1c(=O)oc2cc(S(=O)(=O)Nc3ccc(Cl)cc3)ccc21,.,.,-13%,-3%,-7%,4%,29%,10%
O=C(N/N=C/c1ccc(OCCCF)cc1)c1ccc(C(F)(F)F)cc1,.,.,?,?,-21%,-7%,-8%,.
O=C(CNC(=O)c1ccc(Br)cc1)Nc1ccc(Br)cc1C(=O)c1ccccc1,5%,-3.7%,1%,-10%,-2%,?,17%,8%
CC1=NN(c2ccccc2)C(=O)/C1=C\N1CC(C)OC(C)C1 (stereo not drawn),1%,3.7%,2%,0%,-26%,-1%,6%,-10%
Cc1ccccc1C(=O)OC1CCCN(C)C1 (stereo not drawn),.,.,.,.,-12%,12%,-15%,24%
CCOC(=O)/C=C1\SCC(=O)N1CC(O)CN1C(=O)CS/C1=C/C(=O)OCC (stereo not drawn),.,.,-8%[46.1 µM],7%[46.1 µM],5%,.,-1%,.
CCOC(=O)N1CCN(C(=O)Nc2ccc(Cl)cc2)CC1,5%,0.0%,6%,2%,1%,1%,-11%,-8%
COC(=O)/C=C1\S/C(=N/N=C/c2ccccc2)NC1=O,1%,-1.7%,12%,-15%,?,-16%,-5%,-7%
O=C(CN1CCN(S(=O)(=O)c2ccc(Cl)s2)CC1)NCc1ccc(Cl)cc1,?,-0.5%,-18%,-7%,38%,2%,?,-48%
CCN(Cc1ccncc1)C(=O)c1ccccc1NS(=O)(=O)c1ccc(Br)cc1,.,.,.,.,-13%,-1%,8%,-4%
CC(C)OC(=O)C1=C(N)N2C(=O)CSC2=C(C(=O)OC(C)C)C1,10%,-1.4%,?,12%,1%,-4%,-1%,0%
CCNC(=O)CN1C(=O)NC2(CCCCCC2)C1=O,5%,5.1%,6%,-2%,12%,5%,18%,9%
CC(C)CN(C(=O)COc1ccc(C(C)(C)C)cc1)C1CCS(=O)(=O)C1 (stereo not drawn),.,.,-14%,10%,-7%,-2%,-12%,.
COc1cc(NC(=O)c2ccccc2C)c(OC)cc1NC(=O)CN1CCOCC1,.,.,?,2%[46.1 µM],27%,1%,-12%,3%
Cc1ccc(C(=O)NNS(=O)(=O)c2ccc(F)cc2)cc1,.,.,0%[46.1 µM],?,-2%,8%,32%[activator],?
Cc1cccc(N2C(=O)CN(Cc3sccc3C)C2=S)c1,10%,-2.1%,?,-5%,3%,4%,-12%,1%
CCC(CC)C(=O)Nc1ccc(S(=O)(=O)Nc2nccs2)cc1,.,.,10%,?,-3%,0%,64%[activator],2%
O=C(CCN1CCOCC1)NNC(=S)NC(=O)c1ccccc1,.,.,0%,6%[46.1 µM],38%,5%,-4%,.
NC(=O)Nc1ccc(Cl)cc1,.,.,-14%,5%,-10%,-3%,0%,-4%
Cc1ccc2nc(-c3cccc(Br)c3)cc(C(=O)NC3CC3)c2c1,.,.,-18%,27%,1%,-10%,-8%,0%
COCCn1c(SCC(=O)Nc2ccccc2OC)nc2c(oc3ccccc32)c1=O,.,.,.,.,18%,0%,?,-11%
O=C(Oc1ccccc1)c1cccc(COC(=O)c2cnccn2)c1,30%,-2.0%,10%,-2%,-6%,-27%,33%[activator],-28%
Cc1cccc(NC(=O)CN2C(=O)N/C(=C\c3ccccc3OCc3ccc(C(=O)O)cc3)C2=O)c1,.,.,?,15%,3%,-2%,0%,7%
N#Cc1c(NC(=O)c2cccnc2)sc2c1CCC2,8%,-5.1%,?,?,?,3%,15%,-78%
O=c1c2c(ncn2C2CCCC2)n(Cc2ccccc2)c(=O)n1CCOc1ccccc1,1%,-3.1%,-23%,-24%,2%,-8%,-22%,16%
CCOc1ncccc1C(=O)OCc1cn2cc(Cl)ccc2n1,-22%,-6.6%,-12%,2%,-3%,-11%,0%,-13%
Cc1cccc2cc(CN(Cc3ccccc3)C(=O)N(C)C)c(=O)[nH]c12,-3%,-3.3%,-3%,-12%,-7%,-3%,-28%,-9%
O=C(CSc1nnc2ccccn12)N1CCc2ccccc21,.,.,-17%,-6%[46.1 µM],0%,-7%,42%[activator],.
CCOC(=O)C1CCN(c2cc3c(cc2NC(=O)c2ccc(OC)c(OC)c2)n(C)c(=O)n3C)CC1,4%,-0.6%,?,2%[46.1 µM],6%,-2%,?,-1%
COc1cc(N2CCCC2)c(OC)cc1/C=C1/NC(=S)NC1=O,?,-13%,-10%,9%,-7%,-9%,-21%,17%
CCOc1ccccc1Nc1ncnc2c1cnn2-c1ccc(C)cc1,-4%,-5.6%,16%[46.1 µM],.,.,.,-14%,.
C[C@]12c3[nH]c4ccc(Cl)cc4c3CCN1C(=O)[C@@H](CC(=O)NCCN1CCOCC1)C[C@@H]2C(=O)N1CCCCC1,.,.,.,6%,-10%,12%,-20%,.
O=C(c1ccc(Cl)cc1)c1coc2ccc(O)cc12,-11%,-15%,?,5%,-2%,-19%,-1%,-17%
CCCOc1ccc(C2C(=O)N(C3CCC(C)CC3)CC(=O)N2Cc2cccc(OC)c2)cc1OC (stereo not drawn),11%,-0.1%,18%[46.1 µM],.,.,.,-17%,.
CCC1CCCCN1CCCNC(=O)Cn1cnc2sc(C)c(S(=O)(=O)N3CC(C)CC(C)C3)c2c1=O (stereo not drawn),.,.,5%,-24%[46.1 µM],-4%,0%,14%,6%
CC1C(=O)C(C)C(c2ccc(Br)cc2)NC1c1ccc(Br)cc1 (stereo not drawn),.,.,.,.,-14%,-4%,-21%,-39%
CCOc1cc(-c2c(C#N)c(N)nc3c2CCCC3C)ccc1O (stereo not drawn),-8%,-10%,-15%,-29%,26%,-11%,0%,-33%
Cc1ccc(CC(CC(=O)O)C(=O)NCC23CC4CC(CC(C4)C2)C3)cc1 (stereo not drawn),.,.,6%,24%[46.1 µM],8%,1%,-15%,.
CCc1cccc(CC)c1NC(=S)NCc1ccc2c(c1)OCO2,-10%,-6.3%,8%,-18%,4%,21%,15%,-20%
O=C(Nc1cccc(Cl)c1N1CCOCC1)c1ccco1,.,.,?,-10%[46.1 µM],-12%,-8%,-8%,-16%
COC(=O)c1cc2occc2n1Cc1nc(-c2cccc(Br)c2)oc1C,-1%,0.0%,.,3%[46.1 µM],.,.,-18%,.
COc1ccc(Oc2cc(C(F)(F)F)nc(N(C)C)n2)cc1,.,.,-5%,-4%[46.1 µM],-13%,0%,-3%,0%
COCCn1c(SCC(=O)Nc2cc(C)cc(C)c2)nc2ccccc2c1=O,.,.,.,.,23%,-4%,-3%,0%
COC(=O)Cn1c(=O)c2cccn2c2cccnc21,9%,2.5%,4%[46.1 µM],12%[46.1 µM],.,.,-11%,.
COCCn1c(SCC(=O)c2cc(C)ccc2C)nc2cc(C(=O)NC3CCCC3)ccc2c1=O,-15%,-0.1%,0%[46.1 µM],.,.,.,-6%,.
O=C(CCCSc1nnnn1-c1ccccc1)c1ccc(F)cc1,10%,2.2%,.,6%,.,2%,.,-16%
COc1ccccc1CN1CCNC(=O)C1CC(=O)NCCOc1cccnc1 (stereo not drawn),.,.,-19%[46.1 µM],?,5%,0%,-4%,5%
COCc1cc(=O)[nH]c(-c2ccccc2)n1,.,.,-2%,13%,3%,0%,-16%,.
COc1ccccc1-n1cnnc1SCC(=O)NC1CCS(=O)(=O)C1 (stereo not drawn),.,.,2%,2%[46.1 µM],-10%,0%,10%,.
c1ccc(-c2nc(N3CCCCC3)nc3ccccc23)cc1,-16%,-6.2%,-10%,?,-4%,-33%,0%,3%
Cc1ccc(NC(=O)Nc2ccc3nc(N4CCN(C)CC4)cc(C)c3c2)cc1F,-2%,-3.6%,?,.,.,.,-21%,.
Cc1cc(C)n2nc(C(=O)Nc3ccc(S(=O)(=O)N4CCCC4)cc3)nc2n1,.,.,21%,-1%[46.1 µM],-15%,1%,8%,-1%
# Further records follow.
SMILES,Cruzain inh noDet,Cruzain inh Det,LASV entry inh,Marburg entry inh,RE007 growth inh,SARS PLpro yeast,StopGo reporter,NS1 function inh
COc1cccc(OC(=O)CSc2nnc(-c3cccs3)o2)c1,-5%,-3.0%,?,?,.,.,1%,.
COCCCn1c(SCC(N)=O)nnc1-c1ccccc1,3%,4.1%,5%,4%,-9%,2%,2%,-3%
COc1cccc(/C=N\NC(=O)C2C(=O)NCC2c2ccccc2)c1O (stereo not drawn),3%,-0.1%,-16%,?,16%,3%,-3%,-6%
Cc1c(NC(=O)CSc2nccn2C)c(=O)n(-c2ccccc2)n1C,4%,7.1%,?,9%,15%,1%,13%,4%
Cn1c(=O)c2c(nc(N3CCOCC3)n2CCSc2ncccn2)n(C)c1=O,-13%,-1.2%,.,.,-10%,-6%,-22%,4%
Cc1ccccc1C(=O)NC(=S)Nc1ccc(S(=O)(=O)N2CCN(C)CC2)cc1,5%,-4.6%,3%,?,13%,-7%,10%,1%
COc1ccc(S(=O)(=O)N2CCCCCC2)cc1C(=O)N(C)CCOc1ccccc1,.,.,-1%,-7%,16%,1%,-15%,.

# High-throughput results deposited in PubChem by National Center for Advancing Translational Sciences (NCATS).
